Assay outcomes (PubChem)
VDR inhibitor: vitamin D3 receptor (human) inhibition; P11473; VDR-SRC2-3 peptide fluorescence polarization, 2 h; Potency, µM, without a hit: max response, negative = inhibition, most hits filed as inhibitors; actives 0.93% (n = 400,000); active means well fitted inhibition curve with a large enough effect; inconclusive means small, poorly fitted or top-dose-only effect, or another doubt; inactive means no such curve, though single readings can be large or run the other way; further: series mostly up to about 120 µM
Target sequence (P11473 whole entry, looked up): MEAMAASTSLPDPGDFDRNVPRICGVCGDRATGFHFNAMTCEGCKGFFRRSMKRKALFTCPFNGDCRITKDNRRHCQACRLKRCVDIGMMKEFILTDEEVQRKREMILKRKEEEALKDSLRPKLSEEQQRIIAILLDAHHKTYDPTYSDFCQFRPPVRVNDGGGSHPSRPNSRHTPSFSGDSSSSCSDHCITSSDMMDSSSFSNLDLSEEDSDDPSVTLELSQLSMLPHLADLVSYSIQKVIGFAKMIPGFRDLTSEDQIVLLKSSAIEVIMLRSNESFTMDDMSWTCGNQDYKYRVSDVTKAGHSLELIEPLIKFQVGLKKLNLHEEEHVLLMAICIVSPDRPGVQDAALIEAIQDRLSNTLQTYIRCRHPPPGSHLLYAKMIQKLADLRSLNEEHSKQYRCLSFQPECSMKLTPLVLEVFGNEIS
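Two reagent solutions held at 4 deg C in the dark were dispensed, compounds pinned at 23 nl, and the mixture incubated 2 h at room temperature. Read-out: fluorescence polarization of VDR–SRC2-3 peptide binding.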
* = called active by the depositor; ? = inconclusive; & = joins results of further samples; [ ] = another dose, or the depositor's remark. On the % scale 0 is the no-effect control and ±100 the full control effect; potency means the concentration at half of the fitted maximal effect. Not all compounds are listed; the hit share may differ from the screen's.

Sample of the layout:
Structure | VDR inhibitor
CN(C)S(=O)(=O)c1ccc(/C(O)=C2/C(=O)C(=O)N(Cc3cccnc3)C2c2ccco2)cc1 (configuration not stated) | 0%
Cc1ccc(C)c(CSc2nc3ccncc3n2Cc2nc(-c3ccccc3Cl)oc2C)c1 | 16%
COc1ccc(S(=O)(=O)NCCC(=O)OCc2cc(=O)oc3cc(C)ccc23)cc1[N+](=O)[O-] | -16%
Cc1cc(NC(=O)COc2ncnc3sc(C)c(C)c23)no1 | 9%

The whole of this part, from the first entry:
Structure | VDR inhibitor
CN(C)S(=O)(=O)c1ccc(/C(O)=C2/C(=O)C(=O)N(Cc3cccnc3)C2c2ccco2)cc1 (configuration not stated) | 0%
Cc1ccc(C)c(CSc2nc3ccncc3n2Cc2nc(-c3ccccc3Cl)oc2C)c1 | 16%
COc1ccc(S(=O)(=O)NCCC(=O)OCc2cc(=O)oc3cc(C)ccc23)cc1[N+](=O)[O-] | -16%
Cc1cc(NC(=O)COc2ncnc3sc(C)c(C)c23)no1 | 9%
CCOc1cccc(-c2c(C(=O)N/N=C/c3cccnc3)nnn2-c2nonc2N)c1 | -5%
Cn1c(=O)c2c(nc(N3CCN(c4ccccn4)CC3)n2Cc2ccccc2Cl)n(C)c1=O | 2%
CCCOP(=O)(c1ccc(N(C)C)cc1)C(O)c1ccccc1OC (configuration not stated) | 12%
CCc1nc(N)nc(N)c1-c1ccc(Cl)c(N=[N+]=[N-])c1 | -25%&-10%
CCOc1ccc(C(c2c(O)nc(SC)[nH]c2=O)c2c(O)nc(SC)[nH]c2=O)cc1 | ?
CN1C2C=C3C(C#N)=C(N)C(C#N)(C#N)[C@@H](c4cccc(F)c4)[C@@H]3C1CC2 (some centres not stated) | -26%
Cc1ccc(OCCNC(=O)c2cc(=O)[nH]c3ccccc23)cc1 | -19%
CC(NCc1ccccc1Cl)C(=O)Nc1ccc(S(=O)(=O)N2CCCC2)cc1 (configuration not stated) | 2%
O=c1[nH]c(Cn2nnc(-c3ccccc3)n2)nc2scc(-c3ccccc3)c12 | -6%
COc1ccc(N(C)C(=O)Cc2c(C(=O)O)n(C)c3ccccc23)cc1 | 9%
Cc1cc(C)nc(NS(=O)(=O)c2ccc(NC(=S)NC(=O)C(C)C)cc2)n1 | -14%
Fc1ccccc1N1CCN(c2nnc(C(F)(F)F)c3nnn(Cc4ccccc4)c23)CC1 | -8%
CC(C)CC(=O)OCc1cc(=O)n2nc(C3CCCCC3)sc2n1 | 0%
CCCc1ccc(-c2ccc(C(=O)Oc3ccc(Br)cc3)cc2)nc1 | -7%
CCN1CCN(C(c2ccc(OC)cc2)c2c(O)cc(C)n(Cc3ccco3)c2=O)CC1 (configuration not stated) | -19%
O=C1/C(=C/c2ccc(F)cc2)CCC1C1CCCC1 (configuration not stated) | -15%
CCCNC(=O)CCCN1C(=O)CCn2nc(-c3cccn3C)cc21 | 5%
CCCCCCNC(=O)Cc1nc2nc(C)cc(C)n2n1 | -4%
Cc1ccc(S(=O)(=O)c2nnn3c2nc(N2CCN(c4ccccn4)CC2)c2ccccc23)cc1 | -3%
COc1ccc(S(=O)(=O)CCC(=O)N2CCN(c3cccc(Cl)c3)CC2)cc1 | 3%
Cn1cccc1/C=N/NC(=O)c1cccc(OC(F)(F)C(F)F)c1 | ?
CCOc1cc(C(=O)NCc2ccccc2)ccc1OCC(=O)N1CCCCC1 | -18%
CC(NC(=O)C(=O)NCC1CCCO1)c1ccccc1 (configuration not stated) | -20%
Cn1c(=O)n(C)c2cc(NS(C)(=O)=O)ccc21 | -12%
Cc1cccc(NCc2ccc([N+](=O)[O-])s2)c1 | -16%
CNCc1ccccc1OCC(=O)Nc1ccccc1OC | 14%
COc1cccc(Sc2nc(N(C)C)ncc2S(=O)(=O)c2ccc(Cl)cc2)c1 | 12%
Cc1cc(Cl)cc(Br)c1OCCCN1C(=O)NC(C)(C)C1=O | -3%
CC(=O)N1CCC(N(Cc2ccco2)C(=O)Nc2ccc(Br)cc2F)CC1 | 2%
COc1cccc(C(=O)NC(=O)Nc2cc(C)[nH]n2)c1 | 5%
CC(=O)NS(=O)(=O)c1ccc(NC(=O)COc2cccc3c2OC(C)(C)C3)cc1 | -16%
COc1cccc(CN2CCN(C(=O)C3CCC(=O)N(C4CCCC4)C3)CC2)c1 (configuration not stated) | -6%
Cn1c(=O)n(Cc2ccc(Cl)cc2)c2ccccc21 | -6%
Cc1cc2c(cc1S(=O)(=O)N1CCN(c3cccc(C(F)(F)F)c3)CC1)OCC(=O)N2 | ?
Cc1cc(C)c(NC(=O)c2cn3c4c(c(N5CCN(C)CC5)c(F)cc4c2=O)OCC3C)c(C)c1 (configuration not stated) | -24%
COCC(=O)N(C)c1nnc(-c2cnccn2)s1 | -1%
CCn1c(CC(=O)Nc2ccc(C)cc2)nnc1SCC(=O)N1CCN(c2ccccc2)CC1 | -27%
COc1ccc(CCNC(=O)CCN2C(=O)[C@@H]3Cc4ccccc4CN3C2=O)cc1OC | -9%
O=C1C2C3C=CC(C4CC34)C2C(=O)N1Cc1ccccc1 (configuration not stated) | -8%
CCOc1ccc(NC(=O)COc2ccc(C(=O)NCc3cccnc3)cc2OC)cc1 | -3%
O=C(c1ccco1)N1CCN(CCCCN2C(=O)c3ccccc3C2=O)CC1 | -3%
CCOc1ccc(NC(=O)CN(C)C(=O)C(C)N2C(=O)c3ccccc3C2=O)cc1OCC (configuration not stated) | 127%[activator]
CCOC(=O)Cc1csc(Nc2ccc(Cl)cc2)n1 | ?
COc1cccc(CN(C(=O)c2cc3ccccc3oc2=O)C2CCS(=O)(=O)C2)c1 (configuration not stated) | -7%
Cc1ccc(C)c(NC(=S)NCC(c2ccccc2)N(C)C)c1 (configuration not stated) | -8%
Cc1ccc(C)c(C(=O)CSc2n[nH]c(C(C)C)n2)c1 | 4%
CCOc1ccc(C(=O)CC(NCc2cccs2)C(=O)O)cc1 (configuration not stated) | 25µM*
C#CCNC(=O)C1=C[C@H](C2CCCCC2)C[C@H](OCc2ccc(CO)cc2)O1 | -28%
CN(C)c1ccc(S(=O)(=O)NCC(=O)NCCOc2ccccc2F)cc1[N+](=O)[O-] | ?
C=CCn1c(SCc2c(C)noc2C)nnc1C1COc2ccccc2O1 (configuration not stated) | -10%
Cc1cc2nc(C3CCCN(C(=O)NCc4ccccc4)C3)[nH]c2cc1C (configuration not stated) | -5%
COc1ccc(S(=O)(=O)CCC(=O)Nc2c(C)n(C)n(-c3ccccc3)c2=O)cc1 | 10%
CCn1c(-c2ccccc2)csc1=Nc1ccc(S(=O)(=O)O)cc1 | ?
O=c1c2ccccc2nnn1Cc1ccccc1Cl | 7%
CCCn1ncc(C(=O)NC2CCCN(Cc3ccc(Cl)cc3)C2)c1C (configuration not stated) | 11%
O=C(CSc1c2c(nc3ccccc13)CCC2)Nc1ccc(F)cc1F | -18%

Remaining list, next part:
Structure | VDR inhibitor
CCOc1ccc(NC(=O)CNC(=O)Cc2ccccc2)cc1 | 17%
Cc1ccccc1NC(=O)c1c(C)oc2ccc(O)c(CN3CCN(C)CC3)c12 | -1%
Cc1[nH]c2ccccc2c1C(=O)COC(=O)c1cccc(S(=O)(=O)N2CCCCC2)c1 | 4%
CCN(CC)S(=O)(=O)c1ccc(Cl)c(NC(=O)c2cc(Cl)ccc2Cl)c1 | -10%
CCNC(=O)c1cc(Cl)ccc1OC | -3%
CN(C)S(=O)(=O)c1cccc(NC(=O)c2ccc(OC(F)(F)F)cc2)c1 | 7%
CCN(CC)C(=O)/C(C#N)=C/c1cc(O)c(O)c([N+](=O)[O-])c1 | ?
CCC(CC)C(=O)Nc1cccc(C(=O)NC(C)(C)C)c1 | 3%
CC(=O)c1ccc(N2CCCCC2)c(F)c1 | -16%
O=C(Nc1ccc(S(=O)(=O)N2CCOCC2)cc1)c1ccc(Cl)cc1Cl | -9%
CCOC(=O)c1cnc2c(-c3ccc(F)cc3)cnn2c1C(F)(F)F | -24%
COc1ccc(CCNC(=O)C2CCN(Cc3nc(-c4ccccc4C)oc3C)CC2)cc1OC | 5%
N/C(=N\OC(=O)CCC1CCCCC1)c1ccccn1 | -5%
CCC(c1nnc(SCc2nc3ccccc3s2)n1Cc1ccccc1)N(C)C (configuration not stated) | 13%
C=CCC[C@@H](Cc1ccc(F)cc1)C(=O)OC[C@@H](C)NC(=O)[C@H](CC=C)CC(=O)N(CCO)Cc1ccccc1 | -14%
C=CCNC(=O)CSc1nc2ccccc2c(=O)n1CCc1ccc(OC)c(OC)c1 | 15%
O=C(OCC(=O)N1CCCc2ccccc21)c1ccccc1OC(F)F | -12%
COc1ccc(N2C(=O)CC(NNc3nc4ccccc4s3)C2=O)cc1 (configuration not stated) | 0%
CC(C)c1ccc(/C=C(/C#N)c2nnc(NC(=O)c3ccccc3)s2)cc1 | -1%
O=C(Nc1ccc(F)c([N+](=O)[O-])c1)C(=O)c1c(O)[nH]c2ccccc12 | -15%
FC(F)(F)c1ccccc1-n1c(-c2cnccn2)n[nH]c1=S | 9%
S=C(Nc1ccc(Br)cc1)N1CCn2cccc2C1c1cccnc1 (configuration not stated) | -9%
CN1CCN(S(=O)(=O)c2ccc(SCCOc3ccc(Cl)cc3)nc2)CC1 | 7%
Cc1ccc2[nH]c(=O)c(CN(Cc3ccco3)C(=O)N3CCOCC3)cc2c1 | 5%
O=C(COC(=O)C1COc2ccccc2O1)NC1CCCCC1 (configuration not stated) | -8%
Nc1nc(NCC2CCCO2)nc(Nc2ccccc2F)c1[N+](=O)[O-] (configuration not stated) | -17%
CC1CCc2nc(NC(=O)CN3CCN(c4ccccc4)CC3)sc2C1 (configuration not stated) | 1%
COc1ccc(CN2C(=O)c3cccnc3C2=O)cc1S(=O)(=O)N(C)c1ccc(C)cc1 | 6%
c1ccc2oc(NC3=NCN(C4CCCCC4)CN3)nc2c1 | -8%
CCc1ccccc1NC(=O)CCS(=O)(=O)c1ccc(Br)cc1 | -10%
Cc1cc(C)c2c(N)c(C(=O)N3CCc4ccccc4C3)sc2n1 | 7%
O=C(CN(Cc1ccco1)C(=O)Cn1nnc(-c2ccc(F)cc2)n1)NC1CCCC1 | -6%
Brc1ccc(-c2cc3c(N4CCN(c5ccccc5)CC4)nccn3n2)cc1 | 1%
O=C(COc1ccc(Cl)cc1)N1N=C(c2cccs2)CC1c1ccco1 (configuration not stated) | 6%
COc1ccc(C2CC(O)(c3ccccc3)Oc3c(C)ccc(C)c32)cc1 (configuration not stated) | -2%&5%
O=C(Cn1ccc([N+](=O)[O-])n1)NCc1ccco1 | -15%
CCC(C)NC(=S)NNC(=O)c1ccc(C(C)(C)C)cc1 (configuration not stated) | -1%
CC(C)NC(=O)COC(=O)c1cc(F)c(F)cc1Cl | -10%
CC(=O)OCC(=O)Nc1ccc(C(C)=O)cc1 | 27%
COc1ccc(-c2cc(OC(=O)c3cccc(Cl)c3)c3c(C)oc(C)c3c(=O)c2)cc1 | ?
CCOC(=O)C1CCN(C(=O)Cc2ccc(-c3ccccc3)cc2)CC1 | -16%
COCCn1cc(C(=S)N2CCCCC2)c2ccccc21 | 9%
O=C(CNc1ccc(Br)cc1)Nc1ccc(S(=O)(=O)N2CCCC2)cc1 | 3%
Cc1ccc[n+](CC(=O)c2cc3ccccc3oc2=O)c1 | 8%
COc1cc(-c2nnc(-c3cccnc3)o2)cc(OC)c1OC | -10%
CCOC(=O)c1cn(Cc2ccc(Cl)cc2Cl)c2cc(C)nn2c1=O | -19%
O=C(Cc1ccccc1)Nc1ccccc1CO | -1%
CCOc1cc(NS(C)(=O)=O)c(OCC)cc1NC(=O)c1cccs1 | 4%
CCOc1ccc(CNC2CCCc3ccccc32)cc1 (configuration not stated) | -1%
CC(C)CN(C(=O)CSc1nncs1)c1c(N)n(CC(C)C)c(=O)[nH]c1=O | 17%
CCN1C(=O)[C@H]2[C@@H](c3ccc(-c4ccccc4)c(OC)c3)N[C@@](Cc3ccccc3)(C(=O)OC)[C@H]2C1=O | -7%
O=C(CSc1nc2ccccc2c(=O)n1CC1CCCO1)NCc1ccc2c(c1)OCO2 (configuration not stated) | -20%
COc1ccc(OC)c(S(=O)(=O)NCc2ccc3c(c2)CCN3C(=O)c2cccc(C)c2)c1 | 5%
O=C(NCCCn1ccnc1)/C(=C\c1cccs1)NC(=O)c1ccccc1 | -6%
COc1ccc(S(=O)(=O)NCC(=O)N(Cc2ccco2)C(C(=O)NC(C)(C)C)C(C)C)cc1 (configuration not stated) | 0%
Nc1c(C(=O)c2ccc(Br)cc2)oc2ccccc12 | -3%
CC(C)(CNC(=O)c1sc2cc(F)ccc2c1Cl)N1CCOCC1 | -1%
CN1CCC(C2(O)c3ccccc3CSc3sccc32)CC1 (configuration not stated) | 3%
O=C(Cn1c(CN2CCCCC2)nc2ccccc2c1=O)NCc1ccco1 | 18%
CCOC(=O)c1c(C)[nH]c(C(=O)OCC(=O)Nc2cc(C)nn2-c2ccccc2)c1C | 12%
O=C(OCC(=O)N1CCCC1)c1ccco1 | 13%
Cc1cc(S(=O)(=O)N(Cc2ccc(F)cc2)CC2CCCO2)ccc1-n1cnnn1 (configuration not stated) | -6%

5 of the compounds above, with values ahead of the structure.
VDR inhibitor | SMILES
-8% | c1ccc2oc(NC3=NCN(C4CCCCC4)CN3)nc2c1
7% | CN(C)S(=O)(=O)c1cccc(NC(=O)c2ccc(OC(F)(F)F)cc2)c1
27% | CC(=O)OCC(=O)Nc1ccc(C(C)=O)cc1
-5% | CCOc1cccc(-c2c(C(=O)N/N=C/c3cccnc3)nnn2-c2nonc2N)c1
-25%&-10% | CCc1nc(N)nc(N)c1-c1ccc(Cl)c(N=[N+]=[N-])c1
